# StopGo FLuc = FMDV 2A StopGo reporter, firefly signal; Potency, µM (highest dose often 57.5 µM), for inactives: top-dose signal change, negative = less light; hit rate 0.23% among 120,000; HEK cells with a luciferase reporter of 2A StopGo recoding; active = well fitted falling curve with a large enough effect; inconclusive = small, poorly fitted or top-dose-only effect; inactive = no such curve, though single readings can be large or run the other way; note: nearly all actives have a fitted effect of over 60% in size; overnight with compound
# StopGo RLuc = FMDV 2A StopGo reporter, Renilla signal; Potency, µM (top dose mostly 57.5 µM), without a hit: at the top dose signal change, negative = less light; HEK cells with a luciferase reporter of 2A StopGo recoding; hit rate 0.32% among 120,000; active means well fitted falling curve with a large enough effect; inconclusive means small, poorly fitted or top-dose-only effect; inactive means no such curve, though single readings can be large or run the other way; note: nearly all actives have a fitted effect of over 55% in size; overnight with compound
# Starred values were filed as active, the others as inactive; ? = inconclusive; & = joins results of further samples; [ ] = remark or other dose. % is set by controls: 0 for no effect and ±100 for the full control effect; potency is the fitted concentration of half-maximal effect. Some of the compounds tested; rates above refer to the full screens.
SMILES	StopGo FLuc	StopGo RLuc
CN(C)c1ccc(CNC(=O)c2ccc3c(c2)N(C)C(=O)C2CCCCN32)cc1 (centres undefined)	68%[activator]	118%[activator]
Cc1cc(CN2CCN(c3ccccc3F)CC2)cs1	1%&-3%	-8%&-2%
Cc1ccc(NS(=O)(=O)c2ccc(OCC(=O)NCc3ccc4c(c3)OCO4)cc2)cc1	-12%	150%[activator]
O=C(Nc1ccc(Cl)cc1)C(=O)Nc1cccc(S(=O)(=O)NC2=NCCC2)c1	89%[activator]	98%[activator]
Cc1c(C(=O)Nc2cccc(C(F)(F)F)c2)sc2c1C(c1cccc(O)c1)CC(=O)N2 (centres undefined)	30%	-30%
Cc1ccccc1CNC(=O)Cn1nc(C)c2nn(-c3ccc(Cl)cc3)c(C)c2c1=O	2%	0%
Cc1cccc(-c2nc(SCC(=O)N3CCc4ccccc43)c3c(=O)n(C)c(=O)n(C)c3n2)c1	-11%	-5%
CCc1ccc(NCc2cc3cc(OC)c(OC)cc3n(CC(=O)Nc3ccc(F)cc3)c2=O)cc1	14%	-3%
Cc1ccc(NC(=S)NC(NC(=O)C(C)C)C(Cl)(Cl)Cl)cc1 (centres undefined)	0%	22%
COc1cc(/C=C/C(=O)OC2CCC(C(C)(C)C)CC2)cc(OC)c1OC (centres undefined)	0%	10%
Cc1cccc(CNC(=O)CN2CC(C)Sc3ccccc32)c1 (centres undefined)	45%[activator]	20%
Cc1ccc2oc(-c3ccc(Cl)cc3)nc2c1	16%	8%
CCc1ccc(NC(=O)Cn2c(=O)n(CCc3ccccc3)c(=O)c3sc4ccccc4c32)cc1	5%	-6%
COc1cccc(CNC(=O)Cn2c(=O)n3nc(-c4cccc(C)c4)nc3c3ccccc32)c1	55%[activator]	-1%
Cc1ccc(C(=O)N2CCC(C(N)=O)CC2)cc1NC(=O)c1nsc2ccccc12	-7%	11%
Fc1ccc(CCNc2ncnc3nc[nH]c23)cc1	58%[activator]	-32%
COC(=O)c1c(C)[nH]c(C(=O)c2oc3ccc(OC)cc3c2C)c1C	0%	50%[activator]
Cc1ccc(CN(C)CC(=O)NC(=O)NC(C)(C)C)cc1	12%	13%
CCc1ccc(C(=O)N2CCC(c3nc(-c4ccc(S(=O)(=O)N5CCCC5)cc4)no3)CC2)cc1	-17%	-8%
CCN(CC)C(=S)SCC(=O)Nc1ccc(N(CC)C(C)C)cc1	19%	-6%[1.06 µM]
COc1ccc(N2CCN(CC(O)COc3ccccc3C(C)(C)C)CC2)cc1 (centres undefined)	-5%	-6%
c1ccc(CSc2ccc(Oc3ccc(SCc4ccccc4)cc3)cc2)cc1	0%	0%
COc1cccc2cc(-c3nnc(SCC(=O)c4ccc(F)cc4)n3C)oc12	9%	7%
CCCC(=O)Nc1ccc2oc(-c3cccc(Cl)c3)nc2c1	21%	5%
CN(C)C(=O)CCc1c(-c2ccc(F)cc2)[nH]c2ccccc12	-9%	33%[activator]
O=C(c1cccc(Cn2cc(C(F)(F)F)cc(Cl)c2=O)c1)N1CCCCC1	0%	9%
Nn1c(SC(C(=O)Nc2ccc(F)cc2)c2ccccc2)nnc1-c1ccco1 (centres undefined)	38%[activator]	88%[activator]
Cn1c(Sc2cc(-c3ccccc3)c3ccccc3n2)nnc1-c1ccc(F)cc1	?	?
Cc1ccc2[nH]c(C(=O)OCC(=O)N(c3ccccc3)C(C)C)cc2c1	1%	-5%
O=C(NCc1ccc(Br)cc1)c1n[nH]c2c1CCCC2	171%[activator]	19%

# Next entries.
SMILES	StopGo FLuc	StopGo RLuc
Cc1ccc(-c2noc(-c3ccc(Br)cc3)n2)s1	150%[activator]	3%
COC(=O)C(C)Sc1nc(C)c2cc(C)ccc2n1 (centres undefined)	24%	6%
COc1ccccc1NC(=O)C1CCN(S(=O)(=O)c2ccc3[nH]c4c(c3c2)CCCCC4)CC1	-14%	16%
Cn1c(=O)[nH]c(=O)c2c1nc(N1CCN(Cc3ccccc3F)CC1)n2CCc1ccccc1	-5%	-2%
Cc1ccccc1NC(=O)C(C)Sc1ccccc1 (centres undefined)	20%	-4%
Cc1cccc(NC(=O)c2cc(-c3cccnc3)nc3c(C)cccc23)n1	3%	3%
COC(=O)c1ccc(OC(=O)/C=C/c2ccc(Br)o2)cc1	-3%	1%
Cc1ccccc1-c1noc(-c2ccc(N3CCN(c4ccccc4)CC3)c([N+](=O)[O-])c2)n1	7%	-10%
Cc1ccc2c(=O)cc(C(=O)NCC(c3ccc(C)o3)N3CCC(C)CC3)oc2c1 (centres undefined)	-9%	-7%
CC(CC(=O)N(C)C1CCN(C)CC1)c1ccc(F)cc1 (centres undefined)	8%	12%
Cc1ccc(OCCOCCn2c(-c3ccc(Cl)cc3)nc3ccccc3c2=O)cc1	46%[activator]	24%
CCC(C)NC(=O)COC(=O)c1nn(-c2ccccc2)cc1OC (centres undefined)	34%[activator]	29%
Cc1oc2ccc(NS(=O)(=O)c3ccc(F)cc3)cc2c1C(=O)O	-4%	-10%
COc1ccc2c(c1)c1c(c(=O)n(Cc3ccccc3)c(=O)n1CC(=O)NCc1ccccc1Cl)n2C	-13%	-4%
COc1ccc(NC(=O)C(CC(C)C)N2Cc3ccccc3C2=O)cc1Cl (centres undefined)	-10%	39%[activator]
Cc1ccc(-c2noc(-c3cccnc3N(C)Cc3ccc(Cl)cc3)n2)cc1	60%[activator]	4%
Cc1ccccc1C(=O)NCc1nc(-c2ccc(Cl)cc2)no1	-13%	-25%
COc1ccc(-n2c(=O)c3ccc(C(=O)NCc4ccc(C)cc4)cc3n(CC(=O)Nc3ccc(F)cc3)c2=O)cc1	21%	114%[activator]
CN(C)CCNC(=S)NC1CCCCC1	-10%	-15%
CC(C)CC(=O)n1nc(-c2ccco2)nc1NCc1cccs1	92%[activator]	3%
CCOC(=O)c1c(-c2ccc(OC)c(OC)c2)csc1NC(=O)CNC(C)(C)C	-2%	41%[activator]
CC(=O)N1CCc2cc(S(=O)(=O)NC(CC(C)C)C(=O)NCc3ccccc3)ccc21 (centres undefined)	-13%	16%
CCOc1ccc(N(C(C)C(=O)N(Cc2ccccc2)Cc2ccccc2)S(C)(=O)=O)cc1 (centres undefined)	-10%	14%
CCCn1nc(C(=O)OCC(=O)NC(=O)NC(C)C)c2ccccc2c1=O	12%	2%
Cc1cc(C)cc(NC(=O)c2c(C)oc3ncnc(N4CCCCC4)c23)c1	-9%	-8%
CCOC(=O)c1c(NC(=O)c2ccccc2C)sc2c1CCCC2	-18%	-13%
Cc1ccc(N2CC(C(=O)N3CCN(c4cccc(C(F)(F)F)c4)CC3)CC2=O)cc1 (centres undefined)	-7%	-8%
COc1cccc(-n2c(=O)c3sc4ccccc4c3n(CC(=O)Nc3ccc(F)cc3F)c2=O)c1	6%	-6%
COc1ccc(-n2nc(C(=O)N3CCN(c4cccc(C)c4C)CC3)c3c4ccccc4n(C)c3c2=O)cc1Cl	-12%	-5%
CC(C)c1ncncc1C(=O)O	5%	10%

# Retrieved by compound from the entries so far (6):
SMILES	StopGo FLuc	StopGo RLuc
COc1ccc(NC(=O)C(CC(C)C)N2Cc3ccccc3C2=O)cc1Cl (centres undefined)	-10%	39%[activator]
Cc1ccc(-c2noc(-c3ccc(Br)cc3)n2)s1	150%[activator]	3%
Cc1ccc(OCCOCCn2c(-c3ccc(Cl)cc3)nc3ccccc3c2=O)cc1	46%[activator]	24%
CCC(C)NC(=O)COC(=O)c1nn(-c2ccccc2)cc1OC (centres undefined)	34%[activator]	29%
CCCn1nc(C(=O)OCC(=O)NC(=O)NC(C)C)c2ccccc2c1=O	12%	2%
CN(C)CCNC(=S)NC1CCCCC1	-10%	-15%

# (next part)
SMILES	StopGo FLuc	StopGo RLuc
CCc1cc(CC)n(-c2nc3c(c(=O)n(Cc4ccc(F)cc4)c(=O)n3C)n2C)n1	-2%	-3%
Cc1ccc(N2C(=O)C(CC(=O)Nc3cccc(F)c3)N(CCc3ccccc3F)C2=O)cc1 (centres undefined)	186%[activator]	151%[activator]
Cc1ccc(C)c(-c2csc(N)c2C#N)c1	0%	17%
CCC(C)(C)C(=O)NCc1ccc(OC)cc1	0%	26%
O=c1cc(CSc2nnnn2-c2ccccc2)[nH]n1-c1ccccc1	0%	2%
COc1ccc(CC(=O)Nc2ccc(-c3nc4ccccc4s3)cc2Cl)cc1OC	21%	-11%
CCOc1ccc2cc(C3CC(c4ccco4)=NN3S(C)(=O)=O)c(Cl)nc2c1 (centres undefined)	0%	253%[activator]
CCN(C(=O)c1cc2c(=O)n(CC)c3ccccc3c2s1)c1cccc(C)c1	7%	26%
COc1ccc2c(c1)CN1C(=O)N(Cc3ccccc3)S(=O)(=O)CC21 (centres undefined)	80%[activator]	50%[activator]
COc1cccc(-c2nn3c(=O)cc(CN4CCN(C(=O)/C=C/c5ccccc5)CC4)nc3s2)c1	-11%	-5%
COc1ccc(CCNc2nc(SCc3ccccc3F)nc3ccccc23)cc1OC	-9%	-4%
CCOC(=O)c1[nH]c2ccccc2c1NC(=O)CCN1CCCCC1	1%	-4%
CCc1ccc(-c2nc(CN3CCCC(C(=O)NCc4ccc(C)cc4)C3)c(C)o2)cc1 (centres undefined)	-18%	3%
COc1ccc2c(c1)c1c(c(=O)n(-c3ccc(OC)c(OC)c3)c(=O)n1CC(=O)N1CCCC1)n2C	11%	-2%
Cc1c(C(=O)N2CCOC(C)C2)cnn1-c1cccc(Cl)c1 (centres undefined)	5%	-3%
CCCCc1ccc(Nc2nnc(SCC(=O)NCC)s2)cc1	23%	7%
Cc1oc2cc(OCC(=O)Nc3ccccc3F)ccc2c(=O)c1Oc1ccccc1	30%	-1%
Cn1cnc2c1c(=O)n(CCCSc1nnc(-c3ccccc3F)o1)c(=O)n2C	-7%	-6%
CC(C)NC(=O)NCc1ccc(C(=O)NC(C)c2ccc(Cl)cc2)cc1 (centres undefined)	-4%	-5%
O=C(/C=C/c1ccc(-c2ccccc2Cl)o1)c1ccc(Cl)cc1	13%	-14%
Cc1ccc(F)c(NC(=O)Nc2ccc3snnc3c2)c1	98%[activator]	-12%
CSc1ccc(-c2ccnc3nc(N4CCOCC4)[nH]c(=O)c23)cc1	0%	-3%
Cn1c(C(=O)NC2CCCC2)cc2c(=O)n(C)c3ccccc3c21	93%[activator]	107%[activator]
CN(C(=O)Nc1cccc(Cl)c1)C(c1ccc(Cl)cc1)c1nccn1C (centres undefined)	2%	6%
C/C(=N\NC(=S)Nc1ccccc1)c1ccc(F)cc1	112%[activator]	14%
Cc1ccc(Cn2c(CO)cnc2SCc2cccc(F)c2)cc1	49%[activator]	6%
COCCNC(=O)c1ccc2c(c1)N(Cc1ccc(C(F)(F)F)cc1)C(=O)c1ccccc1S2	-19%	33%[activator]
CCSc1nc2n(n1)C(c1ccncc1)C1=C(CC(C)(C)CC1=O)N2 (centres undefined)	-9%	-9%
CCn1cc(C(=O)N2CCN(c3ccc(OC)cc3)CC2)c2cc(OC)c(OC)cc2c1=O	-11%	0%
Cc1ccc(Cn2ccnc2SCC(=O)Nc2ccccc2F)cc1	10%	0%

# Later entries
SMILES	StopGo FLuc	StopGo RLuc
COCc1cnc2c(c1SCC(=O)Nc1ccccc1F)c(=O)n(C)c(=O)n2C	30%[activator]	5%
O=C(CN1C(=O)CCSc2ccc(S(=O)(=O)N3CCCC3)cc21)Nc1cccc(F)c1	-28%	2%
Clc1ccc(SCc2cccc3cccnc23)cc1	123%[activator]	3%
Cc1cccc2c(C(=O)NCc3cccs3)cc(-c3cccnc3)nc12	30%[activator]	91%[activator]
CC(C)Oc1ccc(-c2cc(C(=O)NCc3ccncc3)c3ccccc3n2)cc1	263%[activator]	91%[activator]
Nc1ccc(C(=O)N/N=C/c2cccs2)cc1	0%	13%
Cc1ccc2c(c1)N(CCCC(=O)Nc1cccc(C(F)(F)F)c1)C(=O)CO2	-2%	-13%
O=C(Nc1ccc(Cl)c(-c2nc3cc(Cl)ccc3o2)c1)c1ccc([N+](=O)[O-])o1	40%[activator]	-16%
CC1CCC(NC(=O)/C=C/c2ccc(C(=O)NC3CC3)cc2)CC1 (centres undefined)	0%	6%
CCCCOc1cccc(C(=O)N2CCN(CCc3ccncc3)CC2)c1	1%	-9%
Cc1cccc(C)c1NC(=O)CN1CCCC1	-13%	-5%
CCOC(=O)c1cccc(NC(=O)c2ccc(-n3cnc(NC(C)=O)c3)cc2)c1	0%	21%
CCOCN(C(=O)Cn1cnc2cc(C)c(C)cc21)c1c(C)cccc1CC	16%	40%[activator]

# Some of these compounds in order of molecular weight, low to high:
SMILES	StopGo FLuc	StopGo RLuc
Nc1ccc(C(=O)N/N=C/c2cccs2)cc1	0%	13%
Clc1ccc(SCc2cccc3cccnc23)cc1	123%[activator]	3%
CC1CCC(NC(=O)/C=C/c2ccc(C(=O)NC3CC3)cc2)CC1 (centres undefined)	0%	6%
Cc1ccc2c(c1)N(CCCC(=O)Nc1cccc(C(F)(F)F)c1)C(=O)CO2	-2%	-13%
CC(C)Oc1ccc(-c2cc(C(=O)NCc3ccncc3)c3ccccc3n2)cc1	263%[activator]	91%[activator]

# Compound activity: PubChem, National Center for Advancing Translational Sciences (NCATS)
